Mtb growth – Confirmatory growth inhibition assay against Mycobacterium tuberculosis H37Rv, potency (AID 1949) | most inactive calls were filed without a number and no value below 0 was filed | actives 1.6% (n = 100,000) | inhibition, % at 10 µg/mL; hits with a dose series show IC50 in µg/mL;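 active = confirmed in a dose series; inconclusive = about 50% or more but not retested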;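 also: bacteria grown 7 days with compound before Alamar blue readout; 0% = untreated bacteria and 100% = reference antibiotic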
Active calls of the source: *. These rows are one share of the data; the hit share may differ from the screen's.

How did O=C(Nc1cc(Br)ccc1O)c1cnn2c1NC(c1ccco1)CC2C(F)(F)F (stereo not drawn) do in these assays?
Mtb growth: inactive

Results for CCCC(=O)Nc1ccccc1NC(=O)c1ccc2c(c1)OCO2 ?
Mtb growth: inactive

How did CC(CCO)Nc1nc2c(c(=O)n(C)c(=O)n2C)n1Cc1cccc(Br)c1 (stereo not drawn) do in these assays?
Mtb growth: inactive

How did Cc1ccc(C(=O)N2CCN(c3ccc(NC(=O)c4cccc(OCc5ccccc5)c4)cc3)CC2)cc1 do in these assays?
Mtb growth: inactive

How did O=C(Nc1cccc(NC(=O)c2ccccc2F)c1)c1ccccc1F do in these assays?
Mtb growth: inactive

How did Cc1c(C(=O)OC2CCCC2)[nH]c2c1C(=O)CCC2 do in these assays?
Mtb growth: 3%

What do the screens show for `CCOC(=O)N1CCN(S(=O)(=O)c2cc([N+](=O)[O-])ccc2C)CC1`?
Mtb growth: 1%

How did CNC(=O)C1CCCN1S(=O)(=O)c1ccc(OC)cc1 (stereo not drawn) do in these assays?
Mtb growth: 8%

What do the screens show for `COC(=O)c1c(NC(=S)Nc2ccc(CC(=O)O)cc2)sc(C)c1C`?
Mtb growth: 2%

Results for COCC(=O)Nc1ccc(S(=O)(=O)Nc2ccccn2)cc1 ?
Mtb growth: inactive

Results for COc1cc(NC(=O)c2ccccc2-c2ccccc2)c(OC)cc1Cl ?
Mtb growth: 6%

Results for Cc1ccc(OCc2ccc(C(=O)O)cc2)cc1C ?
Mtb growth: inactive

How did CC(NC(=O)COc1ccc(Cl)cc1Cl)C(=O)O (stereo not drawn) do in these assays?
Mtb growth: inactive

Results for COC(=O)c1cc(COc2ccc3ccc(=O)oc3c2)c(C)o1 ?
Mtb growth: inactive

What do the screens show for `CCCCNCCOc1ccc(Cl)cc1C(C)(C)C`?
Mtb growth: 13µg/mL*

How did Cc1cc(C)cc(C(=O)N2CCCC2)c1 do in these assays?
Mtb growth: 8%

Results for COc1ccc(OC)c(NC(=O)C(=O)NC2CCCCCCCCCCC2)c1 ?
Mtb growth: inactive

How did CC(C)C(=O)NC(=S)Nc1ccc(I)cn1 do in these assays?
Mtb growth: 0%

What do the screens show for `S=C(NCC1CCCO1)N1CCN(c2ccccn2)CC1` (stereo not drawn)?
Mtb growth: inactive

Results for Clc1cccc(Cl)c1CNc1ccc(N2CCCC2)cc1 ?
Mtb growth: inconclusive

Results for O=C(Nc1cccc(Br)c1)C1CCN(C(=O)c2ccc(Cl)cc2Cl)CC1 ?
Mtb growth: 2%

How did COc1ccc(C)cc1S(=O)(=O)Nc1cccc(F)c1 do in these assays?
Mtb growth: inactive

How did CCOc1ccc(Nc2ncnc3sc(C)c(C)c23)cc1 do in these assays?
Mtb growth: inconclusive

Results for CCN(CC)C(=O)C(=O)Nc1ccc(Oc2ccccc2)cc1 ?
Mtb growth: 2%

How did COc1ccc(C)cc1N(CC(=O)Nc1cc(C)ccc1C)S(C)(=O)=O do in these assays?
Mtb growth: inactive

Results for COc1ccc(C2=CC(c3ccccc3OC)n3nnnc3N2)cc1 (stereo not drawn) ?
Mtb growth: inactive

What do the screens show for `CC1CCN(CC(O)COc2ccc(-c3ccccc3)cc2)CC1` (stereo not drawn)?
Mtb growth: 10%

How did COc1ccc(-c2csc(NC(=O)c3ccoc3C)n2)cc1 do in these assays?
Mtb growth: inactive

Results for Cc1ccc(SCCNC(=O)c2ccc(C)c([N+](=O)[O-])c2)cc1 ?
Mtb growth: inactive

How did COc1ccc(-c2nnc(SCc3nnc(-c4ccccc4)o3)n2-c2ccccc2)cc1 do in these assays?
Mtb growth: inactive

What do the screens show for `CC(C)(C)NC(=S)Nc1ccccc1F`?
Mtb growth: 4%

What do the screens show for `CCOc1cc(CN)cc(Cl)c1OCC`?
Mtb growth: inactive

Results for COc1ccc(C2(C(=O)Nc3ccc(NC(=O)c4ccccc4F)cc3)CCOCC2)cc1 ?
Mtb growth: 7%

How did Cc1ccc(C)c(OCCCNCc2ccccc2)c1 do in these assays?
Mtb growth: inactive

Results for O=C(Nc1nccs1)c1ccccc1Br ?
Mtb growth: inactive

How did Cc1ccc(NC(=O)CSc2ccccn2)cc1 do in these assays?
Mtb growth: inactive

What do the screens show for `CCOC(=O)c1c(NC(=O)CSc2nnc3ccccn23)sc2c1CCC(C)C2` (stereo not drawn)?
Mtb growth: inactive

What do the screens show for `O=C(NCc1ccc(F)cc1)c1cc(-c2ccccc2)nc2ccccc12`?
Mtb growth: inactive

What do the screens show for `Cc1onc(-c2ccccc2)c1C(=O)Nc1ccc(S(=O)(=O)NCCc2ccccc2)cc1`?
Mtb growth: inactive

Results for CCOc1ccccc1OCC(=O)Oc1ccccc1-c1ccccc1 ?
Mtb growth: inactive

How did Cc1cc(C)nc(/N=C(/NC(=O)NC2CCCCC2)Nc2ccccc2Br)n1 do in these assays?
Mtb growth: inactive

How did C=CCNC(=S)NC(=O)c1cc(Br)ccc1Cl do in these assays?
Mtb growth: 5%

How did O=C(NCc1ccco1)c1nc2ncccn2n1 do in these assays?
Mtb growth: inactive

Results for COc1ccc(C(=O)Nc2nc3ccccc3c(=O)[nH]2)cc1 ?
Mtb growth: inactive

How did Cc1ccc(N2CCN(C(=O)c3cccs3)CC2)c(C)c1 do in these assays?
Mtb growth: 7%

What do the screens show for `CC1CCN(S(=O)(=O)c2ccc(NC(=O)Cc3ccc(F)cc3)cc2)CC1`?
Mtb growth: inactive

How did N#Cc1c(C(F)(F)F)cc(C2CC2)nc1SCC(=O)c1ccc(Cl)cc1 do in these assays?
Mtb growth: inconclusive

Results for CNCCOc1c(Cl)ccc2ccccc12 ?
Mtb growth: inactive

Results for CCN(CC)S(=O)(=O)c1cc(C(=O)Nc2nccs2)c(Cl)cc1Cl ?
Mtb growth: inactive

How did Cc1cc2oc(C(=O)N3CCN(C)CC3)c(C)c2cc1C do in these assays?
Mtb growth: inactive

Results for CC(C)CN(CC(C)C)S(=O)(=O)c1cc([N+](=O)[O-])ccc1N1CCN(Cc2ccccc2)CC1 ?
Mtb growth: 10%

Results for CCN(C1CCCCC1)S(=O)(=O)c1cc(Br)ccc1OC ?
Mtb growth: 1%

How did CC(=O)c1c(C)oc2ccc(N(C(C)=O)S(=O)(=O)c3ccc(F)cc3C)cc12 do in these assays?
Mtb growth: inactive

What do the screens show for `O=C(NCc1ccncc1)C(=O)Nc1ccc(F)cc1F`?
Mtb growth: inactive

How did CC(=O)Nc1ccc(S(=O)(=O)N2CCN(S(=O)(=O)c3ccccc3)CC2)cc1 do in these assays?
Mtb growth: inactive

How did Cc1cccc(C)c1Nc1nc2ccccc2o1 do in these assays?
Mtb growth: 19%

What do the screens show for `CCN(CC)C(=O)c1nc(-c2ccccc2)cc(-c2ccccc2)n1`?
Mtb growth: inactive

How did COc1cc(SC)ccc1C(=O)NCCCOC(C)C do in these assays?
Mtb growth: inactive

Results for Fc1ccc(CNC(=S)NC2CCCCCC2)cc1 ?
Mtb growth: inactive

Results for COc1ccc(Nc2ncc(F)c(N3CCOCC3)n2)cc1 ?
Mtb growth: 6%

Results for FC(F)(F)c1ccc(Cl)c(NC(=S)NCC2CCCO2)c1 (stereo not drawn) ?
Mtb growth: inactive

What do the screens show for `COc1cc(OC)cc(C(=O)N2CCN(S(=O)(=O)c3ccc(C)cc3)CC2)c1`?
Mtb growth: 1%

How did O=C(Nc1nnc(SCC(=O)N2CCN(Cc3ccccc3)CC2)s1)c1ccccc1Cl do in these assays?
Mtb growth: inactive

Results for S=C(Nc1ccc(Oc2ccccc2)cc1)N1CCN(c2ccccn2)CC1 ?
Mtb growth: inactive

How did COC(=O)C1=CN(C)C=C(C(=O)OC)C1c1ccccc1Br do in these assays?
Mtb growth: inactive

How did C=CCn1c(SCC(=O)Nc2ccc(-c3nc4ccc(C)cc4s3)cc2)nnc1-c1ccccc1 do in these assays?
Mtb growth: inactive

How did CCOc1ccc(C(=O)NC2CCCCCC2)cc1OCC do in these assays?
Mtb growth: inactive

How did Cc1ccc(-n2nnnc2SCc2ccccc2Br)cc1 do in these assays?
Mtb growth: 2%

How did Cc1cc(C)c(NC(=O)Cn2nc3c4c(cccc4c2=O)-c2ccccc2-3)c(C)c1 do in these assays?
Mtb growth: inactive

How did CC(=O)Nc1ccc(C(=O)CSc2cccc3cccnc23)cc1 do in these assays?
Mtb growth: inactive

Results for O=C1C(=O)N(Cc2ccc(Cl)cc2)c2ccc(Cl)cc21 ?
Mtb growth: inconclusive

Results for CCOc1ccc(C(=O)Nc2nc3ccc(NC(C)=O)cc3s2)cc1Cl ?
Mtb growth: inactive

How did CC(Oc1ccc2c(c1)OCO2)C(=O)NNC(=O)Nc1cccc(Cl)c1Cl (stereo not drawn) do in these assays?
Mtb growth: inactive

Results for COc1ccc(Br)cc1C(=O)NC(=S)Nc1ccc(N2CCN(C)CC2)cc1 ?
Mtb growth: inactive

How did O=C(Nc1sc2c(c1C(=O)O)CCCCC2)c1cccnc1 do in these assays?
Mtb growth: inactive

How did O=C(Nc1ccn(Cc2ccc(Cl)cc2)n1)c1ccc2c(c1)OCO2 do in these assays?
Mtb growth: 2.4µg/mL*

How did COC(=O)c1c(NC(=O)c2cccnc2)sc2c1CCCCCC2 do in these assays?
Mtb growth: inactive

What do the screens show for `COc1ccc(C(=O)Nc2c(Cl)cc(Cl)cc2C(=O)N2CCCCCC2)cc1`?
Mtb growth: 2%

How did O=c1c2ccccc2ncn1CCCOc1ccc(Br)cc1Cl do in these assays?
Mtb growth: inactive

Results for Cc1cc([N+](=O)[O-])nn1Cc1c(F)cccc1Cl ?
Mtb growth: 8%

How did CCC(C)c1ccc(NC(=S)Nc2ccc(OC)cc2OC)cc1 (stereo not drawn) do in these assays?
Mtb growth: inactive

What do the screens show for `CCCCNC(=O)C(=O)Nc1cccc(C)c1`?
Mtb growth: inactive

How did CC(C)(C)NS(=O)(=O)c1ccc(NC(=O)C2c3ccccc3Oc3ccccc32)cc1 do in these assays?
Mtb growth: inactive

How did COc1cc2c(-c3cc(Br)ccc3O)nc3c(c(C)nn3-c3ccccc3)c2cc1OC do in these assays?
Mtb growth: inactive

Results for CC(=O)N(CCC1(c2ccc(C)cc2)CCOC(C(C)C)C1)Cc1ccco1 (stereo not drawn) ?
Mtb growth: 5%

What do the screens show for `CCCCOc1ccc(Cl)cc1CSc1nnc(CC)n1N`?
Mtb growth: inactive

What do the screens show for `CCOC(=O)c1cc(-c2ccccc2)sc1NC(=S)Nc1cccc(S(=O)(=O)N2CCOCC2)c1`?
Mtb growth: 0%

How did Cc1nc(NC(=S)NC(=O)c2cccs2)ccc1I do in these assays?
Mtb growth: inactive

How did CCN1CCN(C(=S)c2ccc(OCc3ccccc3)cc2)CC1 do in these assays?
Mtb growth: inactive

What do the screens show for `O=C(CSc1ccccc1)Nc1cc(Cl)ccc1Cl`?
Mtb growth: inactive

How did COc1ccc([N+](=O)[O-])cc1NC(=S)NCc1ccco1 do in these assays?
Mtb growth: inactive

How did COc1cc(-c2noc(-c3c(-c4ccccc4Cl)noc3C)n2)cc(OC)c1OC do in these assays?
Mtb growth: 3%

How did CC1(C)CC2CC(C)(CN2C(=O)c2ccco2)C1 (stereo not drawn) do in these assays?
Mtb growth: inactive

Results for CN(C)Cc1cc(CN(C)C)c(O)c(CCc2ccccc2)n1 ?
Mtb growth: inactive

Results for COc1ccc(-c2nc3cc(NC(=O)c4ccc(Cl)cc4)ccc3o2)cc1 ?
Mtb growth: inactive

Results for O=C(CSc1ncc(-c2ccccc2)nn1)N=C1NC(=O)CS1 ?
Mtb growth: inactive

Results for CCN1CCN(C(=O)CN(C)S(=O)(=O)c2ccc(OC)cc2)CC1 ?
Mtb growth: inactive

What do the screens show for `CC(=O)C(Sc1ccc(Cl)cc1)C(C)=O`?
Mtb growth: 2%

Results for Cc1cccc(-n2c(CCN3C(=O)c4ccccc4C3=O)nc3ccccc3c2=O)n1 ?
Mtb growth: inactive

What do the screens show for `COC(=O)C1=CN(Cc2cccs2)C=C(C(=O)OC)C1c1cccc(OC)c1`?
Mtb growth: inactive

How did COCCCNC(=O)c1c(NC(=O)c2ccc([N+](=O)[O-])cc2)sc2c1CCCC2 do in these assays?
Mtb growth: inactive

Results for CC(C)OC(=O)COc1cc2oc(=O)c3c(c2cc1Cl)CCCC3 ?
Mtb growth: 48%

How did CCOc1ccc(Cl)cc1CNc1nnnn1C do in these assays?
Mtb growth: inactive

What do the screens show for `CC1CCCN(C2CCN(C(=O)c3cccc(Cl)c3)CC2)C1` (stereo not drawn)?
Mtb growth: inactive

Results for Cc1ccc2nc(-c3ccc(NC(=O)CN4CCN(c5ccccn5)CC4)cc3)sc2c1 ?
Mtb growth: inactive

Results for COc1ccc(OC)c(NC(=O)NCc2ccc(Cl)cc2)c1 ?
Mtb growth: inactive

What do the screens show for `O=C(Cc1cccc2ccccc12)Nc1ccc2c(c1)C(=O)OC2`?
Mtb growth: inconclusive

What do the screens show for `COc1cc(CCN2C(=O)c3cccc4cccc(c34)C2=O)c(S(=O)(=O)NCc2ccco2)cc1OC`?
Mtb growth: inactive

How did CSc1ccccc1NC(=O)C1CCN(S(=O)(=O)c2ccc(F)cc2)CC1 do in these assays?
Mtb growth: inactive
